Beta cell apopt: beta cell apoptosis inhibition | INS-1E cytokine-induced death, ATP luminescence, 48 h; percent of positive-control rescue, neutral wells zero | protection from apoptosis, % (no concentration beside the values) | 0.8% of 300,000 active | AID 435005;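 active = all replicates at 75% or more, or half of them and the mean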;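 note: 0% = cytokine-treated negative control wells and 100% = positive control rescue; higher means more ATP so stronger rescue from cytokine killing; wells of about 40 µL received 100 nL stock; the first replicate is given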
E coli growth: E. coli growth inhibition | Escherichia coli growth, OD600, 23 h; stronger effect = lower value | OD600 absorbance (concentration not given with the values) | 0.21% of 330,000 active;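 active = OD600 absorbance below the run mean of sample wells minus 3.6 SD, in any replicate, cut at about 0.56 in these data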;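 note: stock transfer was 300 nL into about 60 µL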
UCH37 DUB inh: inhibitors of human deubiquitinating enzyme UCH37 | Q9Y5K5 | purified proteasome/UCH37, Ub-AMC cleavage fluorescence | inhibition, % (concentration not given with the values) | 0.33% of 330,000 active | AID 588478;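 active = mean of two replicates above 20%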;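 note: 0% = compound-free wells with enzyme and 100% = wells lacking proteasome; stock transfer was 100 nL into about 20 µL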
Target sequence (Q9Y5K5 whole entry, looked up): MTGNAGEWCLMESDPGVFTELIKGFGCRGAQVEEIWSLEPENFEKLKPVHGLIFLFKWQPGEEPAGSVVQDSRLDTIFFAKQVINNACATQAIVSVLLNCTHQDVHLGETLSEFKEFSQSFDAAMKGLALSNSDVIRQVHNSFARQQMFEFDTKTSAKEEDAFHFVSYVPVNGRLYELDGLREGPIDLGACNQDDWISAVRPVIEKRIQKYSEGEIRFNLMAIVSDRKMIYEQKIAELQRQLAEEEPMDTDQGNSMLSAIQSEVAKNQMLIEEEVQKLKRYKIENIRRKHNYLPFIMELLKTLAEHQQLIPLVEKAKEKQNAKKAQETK
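Signal – fluorescence, ex 355 nm, em 460 nm · System – Proteasome-bound UCH37 · Input – 0.15 nM proteasome as dispensed · Timing – 30 min preincubation with enzyme, 25 min cleavage at room temperature · Read-out basis – percent inhibition of cleavage signal versus uninhibited and no-proteasome wells · Medium – Tris-HCl pH 7.4 with ATP-MgCl2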
FGF22 binding: binders of recombinant human FGF22 by thermal shift. SYPRO orange fluorescence; percent of sucrose octasulfate shift, DMSO zero. calls only at 9.99 µM. AID 651658. 1.5% of 340,000 active. Q9HCT0;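 active = melting point raised past a set limit in the mean and every replicate; three in four hits are not shown here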
Target sequence (Q9HCT0 whole entry, looked up): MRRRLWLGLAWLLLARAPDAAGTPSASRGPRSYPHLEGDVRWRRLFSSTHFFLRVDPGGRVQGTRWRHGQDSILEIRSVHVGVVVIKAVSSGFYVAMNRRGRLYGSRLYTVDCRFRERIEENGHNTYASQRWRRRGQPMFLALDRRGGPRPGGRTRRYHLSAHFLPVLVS
Ecoli rRNA inh: inhibitors of bacterial rRNA selective over humanized ribosomes | E. coli WT GFP vs humanized-ribosome RFP mutants, fluorescence, 24 h; stronger effect = lower value; DMSO median 0, no signal -100 | GFP signal change (wild-type ribosome), % (test concentration not listed) | 1.6% of 350,000 active;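 active = significant combined selectivity score with lowered wild-type GFP, culture density cut under 30%, mutant RFP and density less affected; inactive = any of these conditions unmet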; note: one replicate is shown; some compounds called inactive have numbers as strong as hits
A1 inh: inhibitors of the anti-apoptotic protein A1, read as caspase activation; MEF A1-2A-BIM cells, Caspase-Glo 3/7 luminescence, 3 h; percent of clofoctol response, vehicle zero; AID 2462; caspase activation, % (concentration not given with the values); 0.066% of 330,000 active;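 active = over half of replicate activation scores above 10%, or exactly half above 10 with the replicate mean above 10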;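 note: wells of about 30 µL received 50 nL stock; many hits fall short of the cut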
T cruzi inh: T. cruzi replication inhibition | 1.4% of 300,000 active | inhibition, % (concentration not given with the values) | T. cruzi beta-gal in NIH3T3, luminescence, 90 h;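 active = mean inhibition across valid replicates above about 55%, limit read from the data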;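 note: signal also drops with host cell toxicity which is not excluded here; 0% = plate median of DMSO wells and 100% = zero luminescence signal; higher percent means less beta-gal luminescence so fewer parasites; stock transfer was 50 nL into about 50 µL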
AF4-AF9 inh: blocks AF4 peptide binding to human AF9; P42568; AlphaScreen, biotin-AF4 peptide binding to FLAG-AF9; inhibition, % at 10 µM; 0.47% of 350,000 active;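 active = every replicate reaching a set inhibition limit, whatever the replicate mean, cut at about 25% in these data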;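 note: 0% = plate neutral control median and 100% = total signal loss; the record names both 10 and 1 µM as test concentration; the first replicate is given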
Target sequence (P42568 whole entry, looked up): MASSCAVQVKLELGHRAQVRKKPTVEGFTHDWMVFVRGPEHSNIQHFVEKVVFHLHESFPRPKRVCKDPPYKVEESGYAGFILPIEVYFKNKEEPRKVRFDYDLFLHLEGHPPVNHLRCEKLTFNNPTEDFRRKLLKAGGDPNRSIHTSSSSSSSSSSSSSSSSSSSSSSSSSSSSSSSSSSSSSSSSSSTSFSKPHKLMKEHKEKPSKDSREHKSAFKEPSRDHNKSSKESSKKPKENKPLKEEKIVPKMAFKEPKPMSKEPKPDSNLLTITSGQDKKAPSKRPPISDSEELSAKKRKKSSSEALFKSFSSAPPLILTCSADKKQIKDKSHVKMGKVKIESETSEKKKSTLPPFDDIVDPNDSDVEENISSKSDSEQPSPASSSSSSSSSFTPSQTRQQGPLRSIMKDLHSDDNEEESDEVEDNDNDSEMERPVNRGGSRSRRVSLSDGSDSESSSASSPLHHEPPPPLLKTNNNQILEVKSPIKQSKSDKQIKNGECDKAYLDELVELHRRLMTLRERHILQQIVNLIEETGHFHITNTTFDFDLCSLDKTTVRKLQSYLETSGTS
Ecoli rRNA inh OD600: also measured in Ecoli rRNA inh; calls as there; OD600 change, %; measured here: OD600 growth;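 optical density of the mix in the first replicate; 0 = DMSO median and -100 = no signal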
Ecoli rRNA inh RFP: further read-out of Ecoli rRNA inh, marked with its call; RFP signal change, %; measured here: RFP humanized mutant strains;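 first replicate; 0 = DMSO median and -100 = no signal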
An asterisk follows results filed as active; i = inactive; / = no result given. A portion of the library; count on the stated rates, not on these rows.

SMILES	Beta cell apopt	E coli growth	UCH37 DUB inh	FGF22 binding	Ecoli rRNA inh	Ecoli rRNA inh OD600	Ecoli rRNA inh RFP	A1 inh	T cruzi inh	AF4-AF9 inh
COc1ccc(NC(=O)CN(C)C(=O)c2cc(-c3ccncc3)nc3ccccc23)cc1	3	0.7	2.0	i	-1	4	2.7	-0.2	1	10
CCN1C(=O)C(Cc2nc3ccccc3c(=O)n2C)c2ccccc21 (centres undefined)	-10	0.71	-0.3	/	/	/	/	-0.1	2	/
Cc1ccc(S(=O)(=O)c2cc3c(=O)n4ccccc4nc3n(C)c2=N)cc1C	-8	0.72	-41	i	2	2	-4.2	0.2	11	0.9
CN(CCc1ccccc1)C(=O)c1cccc(NC(=O)Cc2cccc([N+](=O)[O-])c2)c1	2	0.66	3.2	i	-13	-8	4.5	3.1	/	-3.3
CCCCN1C(=O)C(=O)N(CC(=O)N2CCc3ccccc32)C1=O	-4	0.66	1.3	i	7	15	-0.7	0.5	/	-1.0
COCCNC(=O)/C(C#N)=C1\N=C(N)c2ccccc21	0	/	2.4	/	/	/	/	1.2	3	/
O=C(NNC(=O)C1CC1c1ccccc1)Nc1ccccc1 (centres undefined)	-4	0.69	8.1	/	/	/	/	-0.2	-5	/
COCC1CCCN(Cc2cn(-c3ccccc3)nc2-c2ccc3c(c2)OCO3)C1 (centres undefined)	-2	0.66	5.8	i	10	12	1.7	0.3	11	-8.8
COc1cccc(C(=O)Oc2cc(C)[nH]c(=O)c2[N+](=O)[O-])c1	-3	0.68	9.0	i	10	5	0.0	0.7	-15	0.9
CNC(=O)c1[nH]cnc1C(=O)Nc1cccc(Cl)c1	-7	0.68	4.2	/	14	7	1.6	-0.4	/	-0.5
CCSC1=C(C#N)C(=O)n2c1cc1c2CCCC1	/	0.76	4.4	/	/	/	/	0.5	-9	/
COc1ccc(CCN2C(=O)CC(C(C)c3ccccc3)C2=O)cc1OC (centres undefined)	-3	0.7	-1.1	/	/	/	/	-0.6	8	/
CC(=O)c1ccc(-c2cc([C@H]3[C@H]4C=CC[C@@H](C)[C@@H]4C(=O)N3Cc3ccccc3)ccc2F)cc1	0	/	-0.2	i	9	9	-2.5	-0.2	33	1.8
O=c1n(Cc2ccccc2F)c2ccccc2n1Cc1ccccc1F	4	0.69	3.5	/	/	/	/	-0.8	12	/
Cc1ccc(Cl)cc1N1CCN(S(=O)(=O)c2cccc(S(=O)(=O)N3CCCC3)c2)CC1	-1	0.79	2.5	/	/	/	/	0.3	23	/

Two entries from above, as comma-separated lines.
Compound,Beta cell apopt,E coli growth,UCH37 DUB inh,FGF22 binding,Ecoli rRNA inh,Ecoli rRNA inh OD600,Ecoli rRNA inh RFP,A1 inh,T cruzi inh,AF4-AF9 inh
O=c1n(Cc2ccccc2F)c2ccccc2n1Cc1ccccc1F,4,0.69,3.5,/,/,/,/,-0.8,12,/
Cc1ccc(Cl)cc1N1CCN(S(=O)(=O)c2cccc(S(=O)(=O)N3CCCC3)c2)CC1,-1,0.79,2.5,/,/,/,/,0.3,23,/

The main list resumes, starting 2 compounds before the break.
SMILES	Beta cell apopt	E coli growth	UCH37 DUB inh	FGF22 binding	Ecoli rRNA inh	Ecoli rRNA inh OD600	Ecoli rRNA inh RFP	A1 inh	T cruzi inh	AF4-AF9 inh
O=c1n(Cc2ccccc2F)c2ccccc2n1Cc1ccccc1F	4	0.69	3.5	/	/	/	/	-0.8	12	/
Cc1ccc(Cl)cc1N1CCN(S(=O)(=O)c2cccc(S(=O)(=O)N3CCCC3)c2)CC1	-1	0.79	2.5	/	/	/	/	0.3	23	/
Cc1ccc(NC(=O)c2ccc(OC(=O)C(C)Oc3ccc(Cl)cc3C)cc2)cc1 (centres undefined)	-7	0.74	5.3	/	/	/	/	-1.8	-23	/
O=S(=O)(c1ccccc1)n1cc(-c2ccccn2)c(N2CCOCC2)n1	4	0.67	0.0	i	5	1	2.1	0.1	-4	-4.9
CCOC(=O)C1=C(O)C(=O)N(c2ccc(S(N)(=O)=O)cc2)C1c1ccc(Cl)cc1 (centres undefined)	1	0.67	4.0	/	/	/	/	1.0	4	/
O=C(/C=C/c1ccco1)NCC(=O)N/N=C/c1ccccc1[N+](=O)[O-]	-8	/	/	i	6	2	1.3	0.1	-23	-0.8
CCCCn1c(N)c(N(CCOC)C(=O)c2cc(-c3ccc(OC)cc3)nc3ccccc23)c(=O)[nH]c1=O	1	0.7	-23	i	-3	4	-0.7	0.7	-5	-0.2
O=C(NC1CCCCC1)N(CCN1CCOCC1)Cc1cc2cc3c(cc2[nH]c1=O)OCCO3	-14	0.72	-133	/	/	/	/	0.0	-2	/
COc1cc(OC)c2ccc(=O)oc2c1C(CCN1CCOCC1)c1ccc2c(c1)OCO2 (centres undefined)	/	0.71	-0.6	i	-11	-7	2.2	/	/	6.6
CN(C)c1oc(-c2ccc(OCc3ccccc3)cc2)nc1C#N	-14	0.7	-3.4	/	/	/	/	-2.1	2	/
CC[n+]1cccc(-c2nc3ccccc3s2)c1	-7	0.67	1.0	/	/	/	/	1.5	-13	/
S=c1nc(C2CCCCC2)n(-c2ccccc2)[nH]1	0	0.66	4.4	/	-10	-16	-4.5	0.0	-2	-5.1
O=C(NCCCN1CCOCC1)c1ccccc1N1C(=O)[C@@H]2Cc3c([nH]c4ccccc34)C(c3ccc(F)cc3)N2C1=O (some centres undefined)	0	0.71	3.2	i	15	-6	4.7	0.0	18	8.2
CC(OC1=CC(=O)CCC1)C(=O)c1ccccc1 (centres undefined)	-2	0.72	5.4	/	/	/	/	0.3	-2	/
COC(=O)C1=C(C)Nc2nnnn2C1c1ccccc1Cl (centres undefined)	-1	0.79	0.5	/	/	/	/	0.0	-19	/
Cc1cc(Br)ccc1NC(=O)CNC(=O)CN(C)C1CCS(=O)(=O)C1 (centres undefined)	/	0.64	-0.5	i	7	6	-2.2	/	/	-1.4
COc1ccc(S(=O)(=O)N2CCOCC2)cc1C(=O)N1CCCCCC1	-2	0.66	-0.1	i	11	8	0.5	0.4	0	-2.5
CCOC(=O)c1ccc(NC(=O)C2CC(=O)N(c3ccc4c(c3)OCCO4)C2)cc1 (centres undefined)	/	0.72	2.7	i	11	10	2.9	/	/	-0.2
O=C(CCC1CCCCC1)NCCN1C2=NC[C@H](Cc3ccc(O)cc3)N2C[C@H]1Cc1ccc(O)cc1	0	/	0.3	i	-43	-76	-23	0.3	-25	14
CC(C)(C)c1ccc(C(=O)NCCC(=O)Nc2ccc(S(=O)(=O)Nc3nccs3)cc2)cc1	/	0.68	2.3	i	-36	-34	-7.9	/	/	0.5
N#Cc1cc2c(nc1SCC(=O)N1CCOCC1)CCCCC2	/	0.67	4.0	/	/	/	/	-0.8	13	/
COc1ccccc1NC(=O)Cn1cnc2c(cnn2-c2ccccc2)c1=O	/	0.73	1.7	/	/	/	/	-0.2	-11	/
O=C(COc1ccccc1)NCC(c1ccco1)N1CCN(c2ccc(F)cc2)CC1 (centres undefined)	4	0.63	0.2	i	-14	-47	7.5	0.9	7	6.0
CC(C)Nc1nc(C#N)nc(NC(C)C)n1	-9	0.72	2.1	/	/	/	/	0.2	11	/
COC(=O)c1cc(Br)ccc1NC(=O)CSCc1c(C)noc1C	-2	0.71	1.2	i	-23	-33	-2.0	0.1	/	-3.1
COc1ccc(Nc2nnc(C)c(=O)[nH]2)c(OC)c1	4	0.66	6.3	i	11	13	5.5	2.8	-13	1.3
Cc1cccc(NC(=O)CN2C(=O)CSC2=O)c1	2	0.72	0.3	i	14	4	0.3	0.3	-4	-0.1
Cc1cc(C)cc(NC(=S)N(CCN2CCCCC2)Cc2ccco2)c1	2	0.66	2.6	i	-6	1	18	1.3	-7	6.0
N#CC12CCCCC1CC1CCCCC1(C#N)N2CCO (centres undefined)	-2	0.73	5.8	/	/	/	/	1.1	-14	/
O=C(CC1C(=O)N(c2ccccc2)C(=O)N1C1CCCCC1)Nc1ccccc1 (centres undefined)	10	0.64	1.1	/	/	/	/	0.4	6	/
CCOc1ccc2oc(C(=O)OCC(=O)NCc3ccc(OC)cc3)c(C)c2c1	3	0.68	-16	i	9	13	1.5	0.2	/	-1.9
CCC1CCCCN1CCCNC(=O)CN1C(=O)COc2ccc(S(=O)(=O)N3CCC(C)CC3)cc21 (centres undefined)	-5	0.72	0.6	i	3	3	-2.4	0.5	3	-1.3
Cc1ccc(C(=O)OCC2OC3OC(C)(C)OC3C2O)cc1 (centres undefined)	3	0.73	1.5	/	/	/	/	0.8	-8	/
Cc1cc(C(=O)CCl)c(C)n1-c1c(C)n(C)n(-c2ccccc2)c1=O	-24	0.68	4.7	i	12	10	8.2	0.4	-41	-1.8
COc1ccc(C(=O)C[n+]2ccc(N(C)C)cc2)cc1	17	0.7	-2.3	i	8	16	2.0	0.0	8	-2.8
COc1ccc(NC(=S)NCc2ccc3c(c2)cc(C)n3C)cc1	2	0.72	4.3	i	-2	8	16	-1.0	8	-5.8
O=C(NCC1CCCO1)c1ccc(S(=O)(=O)N2CCC(c3nc4ccc(Cl)cc4[nH]3)CC2)cc1 (centres undefined)	15	0.69	4.4	/	/	/	/	0.3	0	/
COc1ccc(-c2nc3ccccc3nc2-c2ccccc2)cc1	0	0.72	-20	i	-23	-21	-5.7	0.3	18	-2.4
COc1ccc2c(CCNC(=O)/C=C/c3ccc(OC)c(OC)c3)c[nH]c2c1	0	0.64	2.5	i	-14	-18	-1.6	0.4	-4	5.1
c1ccc(Nc2nc(-c3ccncc3)nc3ccccc23)cc1	-3	0.71	-75	i	2	0	5.1	0.3	27	-0.7
c1ccc(-c2nnnn2-c2ccccn2)cc1	/	0.7	2.2	i	7	21	-0.5	/	/	-2.5
CCCn1nnc(NC(=O)c2ccc(-c3cccc(Cl)c3)o2)n1	5	0.67	1.2	/	/	/	/	0.1	6	/
Cc1cc(NC(=O)Cc2ccccc2)ccc1NC(=O)c1cccs1	-6	0.66	3.9	i	-7	-9	0.6	-1.3	/	-2.5
COc1ccc(Cc2nnc(SCC(=O)Nc3ccc(C)c(C)c3)o2)cc1OC	5	0.67	1.8	i	4	7	-1.7	0.8	-3	-2.3
CC1CC2=C(C(=O)O1)C(c1ccccc1)Nc1ccccc1N2 (centres undefined)	-5	0.7	7.6	i	8	7	-1.7	0.9	-3	0.9
Cc1ccc(NC2CCCN(C(=O)c3ccccc3-c3ncc[nH]3)C2)cc1C (centres undefined)	-12	0.65	5.2	i	2	4	-0.3	0.8	-2	2.3
Cc1ccc(CNC(=O)c2cc3c(=O)n(C)c4ccccc4c3n2C)cc1	-1	0.76	-6.2	/	7	15	0.4	-0.8	-15	-1.8
COc1ccccc1/C=N/NC(=O)CO	-3	/	/	i	24	21	3.7	1.1	11	-1.8
CCn1c2ccc(Cl)cc2c2nc3ccccc3nc21	3	0.71	-16	/	/	/	/	/	4	/
CN(C)c1ccc(/C=C(\NC(=O)c2ccccc2)C(=O)NCCCn2ccnc2)cc1	-3	0.65	8.0	i	/	/	/	-0.2	-4	10
Clc1ccc(Oc2nc(N3CCOCC3)nc(N3CCOCC3)n2)c(C2CCCCC2)c1	0	0.79	7.2	/	/	/	/	0.4	12	/
